High-throughput results deposited in PubChem BioAssay by National Center for Advancing Translational Sciences (NCATS).
hNpr1 antagonist: Natriuretic polypeptide receptor (hNpr1) antagonism - Primary qHTS. Potency, µM (highest dose often 46.3 µM), for the others: at the highest dose activity change, negative = inhibition, usual class: inhibitors. HEK293 hNpr1 GloSensor cGMP, ANP-stimulated luminescence. 76,000 tested, 1.6% active. Atrial natriuretic peptide receptor 1 (Homo sapiens), P16066; active = well fitted inhibition curve with a large enough effect; inconclusive = small, poorly fitted or top-dose-only effect; inactive = no such curve, though single readings can be large or run the other way;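 further: nearly all actives have a fitted effect of over 60% in size; nearly all hits also lower the signal before the agonist is added; a reference antagonist and vehicle were the controls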
Target sequence (P16066 whole entry, looked up): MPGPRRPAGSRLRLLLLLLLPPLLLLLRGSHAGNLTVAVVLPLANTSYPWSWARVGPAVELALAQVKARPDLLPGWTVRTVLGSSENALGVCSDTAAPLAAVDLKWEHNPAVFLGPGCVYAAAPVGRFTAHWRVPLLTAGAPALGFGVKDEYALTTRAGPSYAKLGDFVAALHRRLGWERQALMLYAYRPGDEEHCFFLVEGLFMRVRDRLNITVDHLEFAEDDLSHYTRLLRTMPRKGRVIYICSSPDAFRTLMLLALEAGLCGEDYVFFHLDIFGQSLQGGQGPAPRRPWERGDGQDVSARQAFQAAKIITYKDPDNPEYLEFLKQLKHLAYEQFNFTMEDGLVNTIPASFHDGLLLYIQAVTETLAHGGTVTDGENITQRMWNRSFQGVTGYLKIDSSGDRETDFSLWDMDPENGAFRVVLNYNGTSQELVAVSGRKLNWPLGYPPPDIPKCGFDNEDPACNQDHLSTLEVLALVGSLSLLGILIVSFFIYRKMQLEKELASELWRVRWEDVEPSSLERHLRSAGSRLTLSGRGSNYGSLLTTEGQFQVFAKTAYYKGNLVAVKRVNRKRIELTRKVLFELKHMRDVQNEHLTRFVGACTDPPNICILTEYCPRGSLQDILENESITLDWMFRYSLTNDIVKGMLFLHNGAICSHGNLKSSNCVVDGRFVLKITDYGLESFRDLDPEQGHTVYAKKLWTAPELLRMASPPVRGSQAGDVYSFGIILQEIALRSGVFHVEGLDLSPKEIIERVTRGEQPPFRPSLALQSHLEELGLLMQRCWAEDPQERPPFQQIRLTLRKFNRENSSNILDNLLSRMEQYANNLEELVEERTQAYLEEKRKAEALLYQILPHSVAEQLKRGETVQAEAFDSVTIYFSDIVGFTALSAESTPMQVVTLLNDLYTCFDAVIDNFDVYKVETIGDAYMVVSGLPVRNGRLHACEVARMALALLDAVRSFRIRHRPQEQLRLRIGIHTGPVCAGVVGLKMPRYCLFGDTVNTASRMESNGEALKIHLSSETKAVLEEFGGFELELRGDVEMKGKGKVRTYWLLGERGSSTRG
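Compound pre-incubated 30 min at room temperature on GloSensor-loaded HEK293 cells stably carrying hNpr1 and the pGS-40F cGMP biosensor. Stimulation uses hNppA at 0.1 nM final; luminescence is taken at baseline and 20 min post-agonist.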
* = called active by the depositor; ? = inconclusive; & = joins results of further samples; [ ] = remark or other dose. On the % scale 0 is the no-effect control and ±100 the full control effect; potency means the concentration at half of the fitted maximal effect. The list is partial; the hit share may differ from the screen's.

SMILES | hNpr1 antagonist
O=C(c1ccsc1)N1CCN(C(=O)c2nnn3c2COC(c2ccccc2)C3)CC1 (configuration not stated) | 1%
Clc1ccccc1C1(c2ccnc(-c3ccccn3)n2)CCNCC1 | 1%
COCCc1noc([C@@H]2CC(F)(F)CN2C(=O)Cc2ccncc2)n1 | 0%
Cc1cc(F)ccc1OC1CN(Cc2ccccc2)C1 | 0%[70.6 µM]
CC(CN1CC2(CCN(C(=O)c3ccc(=O)n(C)n3)CC2)OC1=O)c1ccccc1 (configuration not stated) | -6%
CN(C)C[C@@H]1CN(Cc2ccccc2)C[C@H]1NC(=O)c1c(F)cccc1F | 1%
CS(=O)(=O)N(Cc1cccnc1)C1CN(C(=O)C2CCCCC2)C1 | -4%
Cn1cc(CNCC2(COc3cccnc3)C[C@@H](O)[C@@H](O)C2)c2ccccc21 (some centres not stated) | -12%
Cc1cccc(OC[C@H]2C[C@@H](NC(=O)c3ccc(C#N)cc3)[C@H](O)[C@@H]2O)n1 | 2%[70.6 µM]
CN1CCC(N2CCC[C@H]2C(=O)NCc2cc3n(n2)CCCNC3)CC1 | -6%
CC(C)c1nncn1C1CCN(S(=O)(=O)c2cccc(F)c2)CC1 | 6%
O=C(Cc1c[nH]c2ncc(-c3ccccc3)cc12)NCC1CCOCC1 | 3%[70.6 µM]
CCN1C(=O)CCN(C(=O)C2(c3ccccc3)CC2)CC12CCOCC2 | 5%
Cc1ccc(CN2CCc3oc(C)c(C(=O)N(C)CC(=O)N4CCCC4)c3C2)cc1 | -1%
CCN1C(=O)COC[C@@H]1[C@H](O)c1ccc(NC(=O)c2ccc3c(c2)OCO3)cc1 | 2%[70.6 µM]

Entries from the list above that have fluorine:
SMILES | hNpr1 antagonist
COCCc1noc([C@@H]2CC(F)(F)CN2C(=O)Cc2ccncc2)n1 | 0%
Cc1cc(F)ccc1OC1CN(Cc2ccccc2)C1 | 0%[70.6 µM]
CN(C)C[C@@H]1CN(Cc2ccccc2)C[C@H]1NC(=O)c1c(F)cccc1F | 1%
CC(C)c1nncn1C1CCN(S(=O)(=O)c2cccc(F)c2)CC1 | 6%

3 structures from above, arranged by length of the SMILES, rising:
SMILES | hNpr1 antagonist
Clc1ccccc1C1(c2ccnc(-c3ccccn3)n2)CCNCC1 | 1%
Cc1ccc(CN2CCc3oc(C)c(C(=O)N(C)CC(=O)N4CCCC4)c3C2)cc1 | -1%
Cc1cccc(OC[C@H]2C[C@@H](NC(=O)c3ccc(C#N)cc3)[C@H](O)[C@@H]2O)n1 | 2%[70.6 µM]

Following part.
SMILES | hNpr1 antagonist
CCCNC(=O)c1cccc2c1CCN2S(=O)(=O)c1cccc(C)c1 | ?
Cn1cc(CN2CCC(C(=O)N3CCCC3)CC2)c(-c2ccc(C3CCCCC3)cc2)n1 | 3%
COc1ccc(C(=O)N2CCc3nnc([C@@H]4C[C@@H](O)CN4C(C)C)n3CC2)cn1 | -13%
Cc1ccccc1NC(=O)N1CCC(CCNC(=O)C2CC2)CC1 | 4%
COc1ccc(C2Cn3nnc(C(=O)N4CCC(C(=O)NC5CCCCCC5)CC4)c3CO2)cc1 (configuration not stated) | -14%
c1ccc(-c2cc(CC3(NCC4CCCCC4)COC3)no2)cc1 | ?
O=C(NCc1nnc2c(-c3nc(C4CC4)no3)cccn12)c1cc(Cl)ccc1F | -1%
Cc1ccc(C(=O)NC[C@H]2O[C@@H](CC(=O)N3CCN(c4ccccc4)CC3)[C@H](O)[C@@H]2O)cc1 | -1%
Cn1c(CN2CCCN(C(=O)c3ccoc3)CC2)nnc1C1CC(N)C1 (configuration not stated) | -3%
O=C1CC(c2ccccc2)N(C(=O)c2cccs2)CCCCCN1 (configuration not stated) | 1%
COCCNC(=O)c1ccc(CC2CCN(C(=O)CN3CCCCCC3)CC2)cc1 | -1%
CC(C)C[C@@H]1N[C@H](C(=O)NCCN2CCOCC2)Cc2cn(Cc3ccccn3)c3cccc1c23 | -8%
CCCC(C)N1CC2(CCN(Cc3nnc(-c4ccccc4)o3)CC2)OC1=O (configuration not stated) | -16%
COc1ccc(Cl)cc1C(=O)N1CCc2nc3cc(-c4ccccc4)[nH]n3c(=O)c2C1 | -3%
CNC(=O)CC1COCCN1C(=O)c1ccc2ncsc2c1 (configuration not stated) | 2%

For reference, part of the list above:
SMILES | hNpr1 antagonist
Cc1cc(F)ccc1OC1CN(Cc2ccccc2)C1 | 0%[70.6 µM]
CC(CN1CC2(CCN(C(=O)c3ccc(=O)n(C)n3)CC2)OC1=O)c1ccccc1 (configuration not stated) | -6%
CN(C)C[C@@H]1CN(Cc2ccccc2)C[C@H]1NC(=O)c1c(F)cccc1F | 1%
CS(=O)(=O)N(Cc1cccnc1)C1CN(C(=O)C2CCCCC2)C1 | -4%
Cn1cc(CNCC2(COc3cccnc3)C[C@@H](O)[C@@H](O)C2)c2ccccc21 (some centres not stated) | -12%

More records
SMILES | hNpr1 antagonist
COCCCn1cnc2cccnc21 | 28%[70.6 µM]
CC(=O)N1CCC(N2CCC3(CC2)CC(C(=O)N2CCOCC2)N(C)C3)CC1 (configuration not stated) | 2%
N#Cc1ccc(C(=O)N2CCC(N3CCCC(C(=O)N4CCCC4)C3)CC2)cn1 (configuration not stated) | 6%
COc1ccc2c(=O)n(CC(=O)N3CCCC(C#N)C3)ccc2c1OC (configuration not stated) | 5%
O=C(NCCC1=CCCCC1)C1CC(=O)N(c2n[nH]c3cccc(F)c23)C1 (configuration not stated) | 4%
Cc1nn(-c2ccccc2)c(C)c1CC(=O)N[C@@H]1COCC[C@@H]1OCC1CC1 | 6%
COc1cc(NC(=O)CCN2CCCCO2)ccc1NC(=O)CC(C)C | 4%
O=C(COc1cccc(F)c1)c1ccc2c(c1)N(CC(=O)N1CCOCC1)C(=O)CO2 | 7%
Cc1c(Cl)cccc1NC(=O)CCn1ccn2nc3c(c2c1=O)CCCC3 | -9%
O=C(C1CC1)N1CCC2(CC1)SCC(=O)N2c1ccc(Cl)cc1 | -3%
C[C@@H]1CN(C(=O)Cc2cc3c(cc2Cl)OCCO3)C[C@@]1(O)C1CCC1 | 0%
COCCCN1CC2(CCN(CC(=O)N3CCNCC3)CC2)CC1=O | 7%
O=C(Nc1ccccc1)N1CCCC1c1nncn1C1CCCC1 (configuration not stated) | 4%
Cc1ccccc1-c1cccc(CN2CCOC(CCN)C2)c1 (configuration not stated) | -7%
COCC(=O)N[C@@H]1CN(Cc2ccc(C)c(C)c2)C[C@H]1CO | -14%
COc1cccc(-c2ccc3c(n2)CN(Cc2ccc(F)cc2)C(=O)CO3)c1 | ?
CCCS(=O)(=O)N[C@H]1C[C@@H](c2nc(-c3ccc(OC)cc3)no2)N(C)C1 | -23%[70.6 µM]
CC(=O)N1CCCCCC1c1nc(-c2cccnc2)no1 (configuration not stated) | -2%
Cc1ncc2n1C(=O)N(C1CCN(Cc3ccc(F)cc3)CC1)C2 | 23%&-13%[70.6 µM]
COCCNC(=O)[C@H]1C[C@H](Oc2cccnc2)CN1C(=O)c1cccc(OC)c1 | 3%
CN1CC(=O)N2CCN(Cc3nn(C)c4cccc(Cl)c34)CC2C1=O (configuration not stated) | 5%
CNC(=O)[C@@H]1CN(S(=O)(=O)c2ccc(F)c(C)c2)C[C@H]1C1CCN(C)CC1 | 0%
COC[C@@H]1[C@H](C(=O)N2CCN(c3ccccc3F)CC2)CCC(=O)N1C | -4%
Cc1cn2nc(C(=O)NCc3cccc(Cl)c3)cc2c(N2CCCC2)n1 | 10%
O=C(CCc1nnn2c1CN(C(=O)Cc1c[nH]c3ccccc13)CC2)N1CCCC1 | 2%
NCc1cccc(-c2ccc3c(c2)C(=O)N2CC[C@H](NC(=O)NC4CCCCC4)[C@H]2C(=O)N3)c1 | -11%
Cc1ccc(CN2CCc3c(cc(C(=O)O)n3C)C2)cc1 | 1%
O=C(c1cc2c(s1)CN(C1CCCC1)C2)N1CCCCCC1 | 0%
CCN1c2cc(C(=O)NCc3ccc(F)cc3)ccc2C(=O)N2CCCCCC21 (configuration not stated) | 5%
CNC(=O)[C@@H]1CN(C(=O)c2ccc(C)nc2)C[C@H]1CO | -17%
COC[C@@H]1CN(Cc2ccccn2)C[C@H]1C(=O)N(C)C | 3%
Cn1c(Cn2cncn2)nnc1C1CCN(Cc2ccc3ccccc3n2)CC1 | 5%
CNC(=O)[C@@H]1C[C@@H](n2cc(CN(C)C(=O)c3cccc(F)c3F)nn2)CN1 | 1%
COCCNC(=O)[C@@H]1C[C@@H](O)CN1C1CCN(C(=O)c2ccc3ncccc3c2)CC1 | 9%
COCCN1C(=O)CCc2cc(NC(=O)c3ccc(C)c(C)c3)ccc21 | 2%
CN1C(=O)CS(=O)(=O)C12CCN(C(=O)C1(c3ccccc3)CC1)CC2 | 1%
Cc1ccc(CN2C(=O)[C@@H]3C[C@@H](O)CN3C3(CN(CCC(C)C)C3)C2=O)o1 | 3%[70.6 µM]
COc1ccccc1NC(=O)N1CCCC1c1nncn1C1CCCC1 (configuration not stated) | -2%
O=C(c1ccc(F)cc1F)N1CCC2(CC1)OCC(C(=O)N1CCCC1)N2C(=O)c1ccccc1 (configuration not stated) | -1%
CN1c2cc(C(=O)Nc3ccc4c(c3)CCC4)ccc2C(=O)N2CCCCC21 (configuration not stated) | -7%
COc1ccccc1C(=O)N1CCCC(c2nn[nH]n2)C1 (configuration not stated) | 8%
CN1CCC(NC[C@H]2O[C@@H](CO)[C@@H](O)[C@H]2N2CCN(c3ncccn3)CC2)CC1 | 5%
CC(=O)N1CCc2nn(CC(=O)Nc3ccccc3C(C)C)c(=O)cc2C1 | 2%
CCS(=O)(=O)N1CCC(CC(=O)NCc2ccccc2)C1 (configuration not stated) | -1%
COc1ccc(-c2nc(C3CC(=O)N(c4ccc(OC)c(OC)c4)C3)no2)cc1OC (configuration not stated) | -9%
COC1C(=O)N(CC2CC2)C12CCN(C(=O)c1cnccc1C)CC2 (configuration not stated) | 0%
COc1ccc2c(c1)CCN=C2C[C@H]1CN(C(=O)c2cccnc2)CC[C@H]1CC(=O)O | 1%[70.6 µM]
COc1cccc(CN2CCC(N3Cc4cnc(C)n4C3=O)CC2)c1 | 11%[70.6 µM]
CC(C)(C)CC(=O)Nc1nc2c(s1)C[C@@H]1[C@](C)(CO)[C@H](O)CC[C@@]1(C)[C@@H]2CC(=O)NCc1ccccc1 | -9%
O=C(O)Cn1ccc2cc(OCCc3cccc(-c4cccc(F)c4)c3)cnc21 | -10%[70.6 µM]
COc1ccc(CN2C(=O)[C@@H]3C[C@@H](CN3Cc3ccc(S(C)(=O)=O)cc3)Oc3ccccc32)cc1 | -2%
COc1ccc(CC(=O)Nc2ccc([C@@H](O)[C@H]3COCC(=O)N3Cc3ccccc3F)cc2)cc1 | -2%
COc1cc(OC)cc(C(=O)N2CCC(Cc3nc(-c4cccc(OC)c4)no3)CC2)c1 | ?
COc1ccc(-c2cnc([C@@H]3COCCN3Cc3ncc[nH]3)[nH]2)cc1 | -24%[70.6 µM]
CC(=O)N1CC[C@@H]2NC(=O)[C@H]3C[C@H](NC(=O)c4cccs4)CN3C(=O)[C@H]21 | -2%[70.6 µM]
COCCNC(=O)C1COC2(CCN(C(=O)c3ccc(OC)cc3)CC2)N1C(=O)c1cccc(C)c1 (configuration not stated) | -11%
COc1ccc(-c2cc(N3CCC(NC(=O)CCc4ccccc4)CC3)n[nH]2)cc1 | 0%
CNCCN1C(=O)CC[C@H]2CN(c3ncc(Cl)cc3F)CC[C@H]21 | -6%
COc1ccc(C(=O)N2CC(c3nnc(-c4ccncc4)o3)C3(CCOCC3)C2)cc1F (configuration not stated) | 4%
COCC(=O)N[C@H]1C[C@@H](CO)N(Cc2ccsc2)C1 | 0%

The list continues.
SMILES | hNpr1 antagonist
CCc1nnc2ccc(NC(C)C)nn12 | 1%
Cc1cccc(C)c1-c1nc(C(=O)N2CCCC2)n2ccccc12 | 3%[70.6 µM]
CCc1ccc(C(=O)N2C[C@@H](COC)[C@H](c3nc(COC)no3)C2)cc1 | 7%
CCc1ccccc1S(=O)(=O)N1CCN(C2(CC)CCN(C(=O)C(C)C)C2)CC1 (configuration not stated) | -8%
CCc1nc(-c2c3n(c(=O)n(Cc4cccc(C#N)c4)c2=O)CCCCC3)no1 | 3%
COc1ccc(C(=O)N2CCCC(c3noc(COc4ccccc4)n3)C2)cc1 (configuration not stated) | -9%
CCOCCOC1CCN(S(=O)(=O)Cc2ccccc2)CC1 | 0%
O=C(c1ccoc1)N1CCC(Cc2noc(-c3ccncc3)n2)C1 (configuration not stated) | 0%
N#Cc1cccc(C(=O)NCC(=O)N2CCCCCNC(=O)CC2c2ccccc2)c1 (configuration not stated) | -5%
COc1cccc([S+](=O)([O-])N2CCNc3cnc(Nc4cccnc4)nc3C2)c1 | 0%[70.6 µM]
CC(C)CN1C(=O)c2cccn2CC1C(=O)NCc1ccco1 (configuration not stated) | 4%
Cc1cc(Cn2cc3c4c(cccc42)[C@H](CC(C)C)N[C@H](C(=O)NCCN2CCOCC2)C3)no1 | 1%
CCOc1ccc(C2NC(=O)N(CC(=O)N(CC)CC)C3=C2C(=O)OC3)cc1 (configuration not stated) | -5%
Cc1ccc(C2(O)CCN(C(=O)Cc3c[nH]c(=O)[nH]c3=O)CC2)nc1 | 2%
COCCOc1ccc2c(n1)CCN(C(=O)c1ccncc1)C2 | 0%
O=C1CC(c2noc(-c3ccc(OC(F)(F)F)cc3)n2)CN1c1ccc(F)cc1 (configuration not stated) | -20%
CN1[C@@H](CCC(=O)N2CCN(c3ccccn3)CC2)CNC(=O)[C@@H]2[C@H]1CCN2Cc1ccc(CO)o1 | 5%
CC(C)n1cc(CN2CCOCCNC(=O)CC2)c2ccccc21 | 0%
COc1cc(OC)cc(C(=O)NCC2CCCN(Cc3cccc(C)n3)C2)c1 (configuration not stated) | -4%
CNC(=O)[C@@H]1CN(C(=O)c2ccc3[nH]ccc3c2)C[C@H]1COC | -1%
